BmaI1: BmaI1 acyl-homoserine lactone synthase inhibition – biochemical, fluorescence intensity, with counterscreen (AID 720554); inhibition, %; BmaI1 enzyme assay, fluorescence intensity; active compounds read high; test concentration not given here; a few actives read low; strong numbers were not always called active; actives 0.4% (n = 12,000);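 active = both replicates within 2 robust z-scores of the inhibited control and a quiet counterscreen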;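 also: 0% = uninhibited enzyme and 100% = inhibited control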
BmaI1 counterscreen: recorded beside BmaI1, whose call it bears; inhibition, %; measured here: counterscreen; design of the counterscreen not given here;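 first of two replicates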
Starred values were filed as active, the others as inactive. A portion of the library. The share of hits here may be higher or lower than overall.

Screening CC1CCc2c(sc3nc(Cc4nc5ccccc5n4C)[nH]c(=O)c23)C1 (configuration not stated) returned BmaI1 40 and BmaI1 counterscreen 8.
`O=C(OCc1nc2ccccc2s1)c1n[nH]c(=O)c2ccccc12` gave BmaI1 10 and BmaI1 counterscreen -4.
Cc1ccc(C(=O)OCN2C(=O)c3ccccc3C2=O)cc1 was read as BmaI1 14 and BmaI1 counterscreen 4.
Screening COC(=O)CSc1nc2c3ccccc3ncn2n1 returned BmaI1 10 and BmaI1 counterscreen 2.
Cc1nnc(SC(C)C(=O)N2CCc3ccccc3C2)n(N)c1=O (configuration not stated) was read as BmaI1 6 and BmaI1 counterscreen 2.
For CN(C)[C@@H]1C(=O)C(C(=O)NCN2CCCC2)=C(O)[C@@]2(O)C(=O)C3=C(O)c4c(O)cccc4[C@@](C)(O)C3CC12 (some centres not stated) the results were BmaI1 20 and BmaI1 counterscreen 6.
Cc1cc(=O)[nH]c(N/N=C/C2CC=CCC2)n1 (configuration not stated) was read as BmaI1 8 and BmaI1 counterscreen -14.
For Cc1ccc(C(=O)N(C)CC(=O)Nc2ccc(F)c(F)c2F)o1 the results were BmaI1 -3 and BmaI1 counterscreen -14.
Screening NC(=O)Cn1nnc2ccccc2c1=O returned BmaI1 2 and BmaI1 counterscreen 0.
For O=C(Nc1ccccc1)c1ccc(-c2nc3ccccc3s2)s1 the results were BmaI1 12 and BmaI1 counterscreen 4.

The final two records of the part above lead into the next.
Screening NC(=O)Cn1nnc2ccccc2c1=O returned BmaI1 2 and BmaI1 counterscreen 0.
For O=C(Nc1ccccc1)c1ccc(-c2nc3ccccc3s2)s1 the results were BmaI1 12 and BmaI1 counterscreen 4.
For CC(=O)Nc1ccc(SCc2nc3ccccc3c(=O)n2CC#N)cc1 the results were BmaI1 28 and BmaI1 counterscreen 11.
For Cc1ccc(CN(C)CC(=O)NC(C)c2ccccc2)cc1 (configuration not stated) the results were BmaI1 12 and BmaI1 counterscreen 10.
O=C(NCCCN1CCOCC1)c1cccc(S(=O)(=O)N2CCCC2)c1 was read as BmaI1 13 and BmaI1 counterscreen 5.
`CCOC(=O)c1cc(-c2ccco2)nc2c1c(C)nn2-c1ccccc1` gave BmaI1 12 and BmaI1 counterscreen 0.
Screening O=C(CN1CCCC1)c1cccc(C(F)(F)F)c1 returned BmaI1 10 and BmaI1 counterscreen 10.
Screening COC(=O)c1cc(OC)c(OC)cc1NC(=O)Cc1ccc(OCc2c(C)noc2C)cc1 returned BmaI1 32 and BmaI1 counterscreen 10.
`CS(=O)(=O)c1ccccc1C(=O)N(Cc1cccs1)c1ccc2c(c1)OCCO2` gave BmaI1 14 and BmaI1 counterscreen 6.
Screening CN(CC(=O)Nc1ccccc1Cl)Cn1nc(-c2ccco2)oc1=S returned BmaI1 14 and BmaI1 counterscreen 8.
O=C(c1cc2c(s1)CCC2)N1CCN(S(=O)(=O)c2cccc(Br)c2)CC1 was read as BmaI1 12 and BmaI1 counterscreen 16.
Cc1cnc(C(=O)OC(C)C(=O)N(C)c2ccccc2)cn1 (configuration not stated) was read as BmaI1 6 and BmaI1 counterscreen 6.
`C/C(=N\NC(=O)C1CC1)c1ccc(-n2ccnc2)cc1` gave BmaI1 8 and BmaI1 counterscreen 19.
CC1CCCCC1NC(=O)CSc1nnc(-c2ccco2)n1Cc1ccccc1 (configuration not stated) was read as BmaI1 22 and BmaI1 counterscreen 11.
CC(C)CN=C1NC(=O)C(CC(=O)NC2CC2)S1 (configuration not stated) was read as BmaI1 6 and BmaI1 counterscreen 4.
COc1ccccc1CN(C)CC(=O)NC(=O)NC1CCCCC1 was read as BmaI1 18 and BmaI1 counterscreen 12.
S=c1[nH]nc(-c2c[nH]c3ccccc23)n1CC1CCCO1 (configuration not stated) was read as BmaI1 78 and BmaI1 counterscreen 54.
O=C1NC(Cc2c[nH]c3ccccc23)C(=O)N1CN1CCCCC1 (configuration not stated) was read as BmaI1 -1 and BmaI1 counterscreen -2.
Screening CCn1c(=O)c(C(=O)CN(C)CC(=O)Nc2ccccc2Br)c(N)n(Cc2ccccc2)c1=O returned BmaI1 12 and BmaI1 counterscreen 18.
`O=S(c1nc2ccccc2[nH]1)C(F)(F)F` (configuration not stated) gave BmaI1 26 and BmaI1 counterscreen 8.
Screening O=c1c2ccccc2n2c(=S)[nH]nc2n1-c1ccccc1 returned BmaI1 94 and BmaI1 counterscreen 88.
Cc1cc(C(=O)COC(=O)[C@@H]2CCCN2C(=O)c2cccs2)c(C)n1Cc1ccco1 was read as BmaI1 1 and BmaI1 counterscreen 8.

The list goes on; the last 3 above are carried over.
`O=S(c1nc2ccccc2[nH]1)C(F)(F)F` (configuration not stated) gave BmaI1 26 and BmaI1 counterscreen 8.
Screening O=c1c2ccccc2n2c(=S)[nH]nc2n1-c1ccccc1 returned BmaI1 94 and BmaI1 counterscreen 88.
Cc1cc(C(=O)COC(=O)[C@@H]2CCCN2C(=O)c2cccs2)c(C)n1Cc1ccco1 was read as BmaI1 1 and BmaI1 counterscreen 8.
For Cc1ccc(C(=O)C2CC2)cc1 the results were BmaI1 4 and BmaI1 counterscreen -8.
`COc1ccc(OC)c(-c2csc(NC(=O)C3=NN(C)C(=O)CC3)n2)c1` gave BmaI1 2 and BmaI1 counterscreen 3.
For S=c1[nH]ncn1-c1ccccc1 the results were BmaI1 94 and BmaI1 counterscreen 42.
COc1ccc(OCc2nnc(SCC(=O)N(C)c3ccccc3)n2Cc2ccco2)cc1 was read as BmaI1 29 and BmaI1 counterscreen 19.
COC(=O)c1ccc(CNC(=O)CNc2cc(C(F)(F)F)ccc2N2CCOCC2)cc1 was read as BmaI1 18 and BmaI1 counterscreen -8.
Screening Cc1cc(C)n2cc(CN(C)Cc3ccccc3)nc2n1 returned BmaI1 6 and BmaI1 counterscreen 6.
For O=c1c2ccccc2c(C=NCCCn2ccnc2)c(O)n1-c1ccccn1 the results were BmaI1 10 and BmaI1 counterscreen 25.
CC(C)c1ccc(CN2C(=O)c3ccccc3C2=O)cc1 was read as BmaI1 25 and BmaI1 counterscreen 12.
Screening O=C(/C=C/c1ccc2ccccc2n1)N1CCN(c2ccccc2)CC1 returned BmaI1 6 and BmaI1 counterscreen 6.
Screening CCC1(C)NC(=O)N(/N=C/c2cc(C)n(CC(C)C)c2C)C1=O (configuration not stated) returned BmaI1 2 and BmaI1 counterscreen -2.
Screening Cc1cc(C)c2c(=O)[nH]c(SCC(=O)NC34CC5CC(CC(C5)C3)C4)nc2n1 returned BmaI1 8 and BmaI1 counterscreen 6.
`CCC1CCCCN1C(=O)Cn1cc(S(=O)(=O)N(C)C)ccc1=O` (configuration not stated) gave BmaI1 2 and BmaI1 counterscreen 6.
Cc1ccc(S(=O)(=O)N(CC(=O)NC2CCCCC2)Cc2ccco2)cc1C was read as BmaI1 9 and BmaI1 counterscreen 2.
Screening O=C(O)CCNC(=O)c1ccc(N=Nc2ccc(O)c(C(=O)O)c2)cc1 returned BmaI1 55 and BmaI1 counterscreen 1.
CCCCC(=C1C(=O)CCCC1=O)N1CCCC1 was read as BmaI1 34 and BmaI1 counterscreen -4.
Screening Cn1c(-c2ccccc2)c(/C=N/NC(=O)C2CC2)c2ccccc21 returned BmaI1 14 and BmaI1 counterscreen 4.
Screening CC(=O)N1C=Cc2ccccc2C1CC(=O)O (configuration not stated) returned BmaI1 4 and BmaI1 counterscreen -6.
Cc1nc2ncnn2c(C)c1CCC(=O)NC1=NCCS1 was read as BmaI1 7 and BmaI1 counterscreen 12.
`COC(=O)C1=C(C)NC(C)=C(C(=O)OC)C1C(=O)OCC(=O)Nc1cccc2nsnc12` gave BmaI1 -15 and BmaI1 counterscreen -2.
For O=C(Cc1ccc(F)cc1)N/N=C/c1ccc(C(=O)O)cc1 the results were BmaI1 3 and BmaI1 counterscreen 6.

4 entries picked at random from those above, as already listed:
`COc1ccc(OC)c(-c2csc(NC(=O)C3=NN(C)C(=O)CC3)n2)c1` gave BmaI1 2 and BmaI1 counterscreen 3.
CCCCC(=C1C(=O)CCCC1=O)N1CCCC1 was read as BmaI1 34 and BmaI1 counterscreen -4.
CC(C)CN=C1NC(=O)C(CC(=O)NC2CC2)S1 (configuration not stated) was read as BmaI1 6 and BmaI1 counterscreen 4.
COc1ccc(OCc2nnc(SCC(=O)N(C)c3ccccc3)n2Cc2ccco2)cc1 was read as BmaI1 29 and BmaI1 counterscreen 19.

The results go on:
Cc1cc(C)n2nc(SCCCC(=O)N3CCOCC3)nc2n1 was read as BmaI1 10 and BmaI1 counterscreen 8.
Nn1c(COc2ccccc2F)nnc1SCCN1C(=O)c2ccccc2C1=O was read as BmaI1 10 and BmaI1 counterscreen 6.
`CCC(C)N(C(=O)CSc1ccc(NC(C)=O)cc1)C1CCS(=O)(=O)C1` (configuration not stated) gave BmaI1 17 and BmaI1 counterscreen 20.
For O=C(OCC1CCCCC1)c1n[nH]c2ccccc12 the results were BmaI1 30 and BmaI1 counterscreen 12.
For Cc1oc(-n2c(C)ccc2C)c(C#N)c1C(C)O (configuration not stated) the results were BmaI1 16 and BmaI1 counterscreen 16.
Screening O=C(CSc1nnc2ccccn12)Nc1ccccc1Cl returned BmaI1 10 and BmaI1 counterscreen 13.
`N#Cc1ccc(C(=O)NCC(c2ccco2)N2CCCC2)cc1` (configuration not stated) gave BmaI1 18 and BmaI1 counterscreen 2.
`CC[C@]1(O)CC2CN(CCc3c([nH]c4ccccc34)[C@@](C(=O)OC)(c3cc4c(cc3OC)N(C)[C@H]3[C@@](O)(C(N)=O)[C@H](O)[C@]5(CC)C=CCN6CC[C@]43[C@@H]65)C2)C1` (some centres not stated) gave BmaI1 -26 and BmaI1 counterscreen -38.
O=S(=O)(c1ccc(Oc2ncnc3sc4c(c23)CCC4)cc1)N1CCOCC1 was read as BmaI1 17 and BmaI1 counterscreen 10.
Screening Cc1ccsc1C(=O)OCC(=O)Nc1ccc2[nH]c(=O)[nH]c2c1 returned BmaI1 8 and BmaI1 counterscreen 9.
Screening Cc1ccc(Cl)cc1N1CCN(C(=O)C2(c3ccccc3)CC2)CC1 returned BmaI1 8 and BmaI1 counterscreen -8.
Screening CC(C(=O)Nc1ccc(F)cc1Cl)N(C)CC1COc2ccccc2O1 (configuration not stated) returned BmaI1 9 and BmaI1 counterscreen 2.
For O=C(CC1SC(=NCC2CCCO2)NC1=O)Nc1cccc2ccccc12 (configuration not stated) the results were BmaI1 18 and BmaI1 counterscreen 11.
For O=C(C1c2ccccc2Oc2ccccc21)N(Cc1nnc(-c2ccccc2Cl)o1)C1CC1 the results were BmaI1 15 and BmaI1 counterscreen 8.
Screening CC(C)(C)NCC(=O)Nc1cc(C(C)(C)C)nn1-c1ccccc1 returned BmaI1 8 and BmaI1 counterscreen 2.
`Cc1ccc(NNC(=S)NCC2CCCO2)c(C)c1` (configuration not stated) gave BmaI1 10 and BmaI1 counterscreen 6.
`CC(C)c1ccc2[nH]c(O)c(N=NC(=O)c3ccccc3O)c2c1` gave BmaI1 25 and BmaI1 counterscreen 6.
For Cc1ccc(CN(C)CC(=O)NC(C)C23CC4CC(CC(C4)C2)C3)o1 (configuration not stated) the results were BmaI1 2 and BmaI1 counterscreen -2.
`CCn1c(-c2ccc3c(c2)OCCO3)cnc1SCC(=O)NC(=O)NCc1ccco1` gave BmaI1 23 and BmaI1 counterscreen 6.
`CN(C)c1ccc(/C=N/OCC(=O)N(C)c2ccccc2)cc1` gave BmaI1 0 and BmaI1 counterscreen 2.
For CC1(C)CC2CC(C)(CN2C(=O)CSc2nnc(-c3cccs3)n2N)C1 (configuration not stated) the results were BmaI1 26 and BmaI1 counterscreen 13.
CCOc1ncccc1C(=O)NCCc1c[nH]c2ccccc12 was read as BmaI1 -3 and BmaI1 counterscreen 1.
For N=c1sccn1CC(=O)NCCc1ccc(Cl)cc1Cl the results were BmaI1 2 and BmaI1 counterscreen -1.
O=C(COc1ccc(-n2cnnn2)cc1)NC(=O)NCc1ccccc1 was read as BmaI1 13 and BmaI1 counterscreen 6.
For O=C(Cc1c(Cl)cccc1Cl)NCCSc1n[nH]c(=O)[nH]c1=O the results were BmaI1 12 and BmaI1 counterscreen 11.
Cc1cc(C=C(C(N)=O)C(N)=O)c(C)cc1C=C(C(N)=O)C(N)=O was read as BmaI1 8 and BmaI1 counterscreen 4.
O=C(OCc1cc(Cl)cc2c1OCOC2)c1c[nH]c2ccccc12 was read as BmaI1 14 and BmaI1 counterscreen 6.
Screening CN(Cc1nc2ccccc2c(=O)[nH]1)C(=O)COc1ccc2c(c1)CCC2 returned BmaI1 22 and BmaI1 counterscreen 8.
For COCCn1c(C)cc(C(=O)CSc2nc(C)c(C)n2C2CCCCC2)c1C the results were BmaI1 19 and BmaI1 counterscreen 2.
Screening O=c1[nH]c(O)c(C=NCCSCc2cccs2)c(=O)[nH]1 returned BmaI1 0 and BmaI1 counterscreen -2.
Screening Cc1cccc(-n2nnnc2SCC(=O)N2CC(C)OC(C)C2)c1 (configuration not stated) returned BmaI1 6 and BmaI1 counterscreen 4.
`O=C(Nc1nncs1)c1cc2c(s1)CCC2` gave BmaI1 8 and BmaI1 counterscreen 4.

A draw from above in order of SMILES length, falling.
Cc1cc(C=C(C(N)=O)C(N)=O)c(C)cc1C=C(C(N)=O)C(N)=O was read as BmaI1 8 and BmaI1 counterscreen 4.
For CC1(C)CC2CC(C)(CN2C(=O)CSc2nnc(-c3cccs3)n2N)C1 (configuration not stated) the results were BmaI1 26 and BmaI1 counterscreen 13.
For O=C(Cc1c(Cl)cccc1Cl)NCCSc1n[nH]c(=O)[nH]c1=O the results were BmaI1 12 and BmaI1 counterscreen 11.
O=C(OCc1cc(Cl)cc2c1OCOC2)c1c[nH]c2ccccc12 was read as BmaI1 14 and BmaI1 counterscreen 6.
Screening O=c1[nH]c(O)c(C=NCCSCc2cccs2)c(=O)[nH]1 returned BmaI1 0 and BmaI1 counterscreen -2.
For N=c1sccn1CC(=O)NCCc1ccc(Cl)cc1Cl the results were BmaI1 2 and BmaI1 counterscreen -1.

From PubChem
